Bioassay records: PubChem BioAssay, several laboratories
MT1-MMP act inh: blockers of MT1-MMP proenzyme processing, primary screen, HT1080 RFP-PRO-GFP cells, GFP/RFP fluorescence; Matrix metalloproteinase-14 (Homo sapiens), P50281; GFP/RFP ratio fluorescence, overnight; percent of plate control window, DMSO zero; GFP/RFP ratio change, % at 20 µM; 360,000 tested, 0.061% active;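 active means GFP/RFP ratio change of at least 30% with cell ATP level not reduced by more than half and red fluorescence within 50% of control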; further: strong numbers were not always called active
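system = RFP-PRO-GFP reporter HT1080 cells | dosing = 20 µM single dose, 1% DMSO | timing = overnight cell settling, then overnight compound exposure, 37 °C, 5% CO2 | read-out basis = GFP/RFP fluorescence ratio | controls = DMSO and RFP-L50D-GFP cell wells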
Yeast UUG start: modulators of yeast start codon fidelity, primary screen, whole organism, S. cerevisiae, single point, plate reader; S. cerevisiae UUG-firefly luciferase reporter, luminescence/redox ratio; activity score, % at 18.7 µM; 350,000 tested, 0.13% active; AID 602363, 2012;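 active means replicate mean at a twofold rise or more, about +100% in these data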;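 further: firefly luciferase made from a UUG start codon reports start codon fidelity; reporter light over untreated wells divided by growth signal over untreated wells; some hits fall short of that in this replicate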
eIF4H FP inh: human eIF4H binding inhibitors, primary screen, translation initiation inhibitor project, biochemical, uHTS, fluorescence polarization | eIF4H fluorescence polarization binding assay | inhibition, % at 35 µM | 290,000 tested, 0.94% active | AID 2012, 2009;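 active means 50% or more with normal probe brightness, or confirmed in later tests; inconclusive means above 50% with abnormal brightness, or retests that disagree; inactive means below 50% or failed in later tests; about a fifth of its hits are not listed in these tables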;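 further: calls also rest on retests at 20 µM and on dose response follow-up; 0% = protein and probe with vehicle and 100% = probe without protein; strong numbers were not always called active; many hits fall short of the cut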
Rce1 inh: yeast Rce1p protease inhibitors, primary screen, biochemical, fluorescence, cell-free homogeneous; CAAX prenyl protease 2 (Saccharomyces cerevisiae (strain ATCC 204508 / S288c)), Q03530; AID 2563, 2010; calls only; 290,000 tested, 0.27% active; yeast membranes, quenched prenylated peptide cleavage fluorescence;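 active means fall in fluorescence gain of 50% or more versus controls, with final raw signal at or below 3038400; inconclusive means same 50% fall but final raw signal above 3038400; inactive means fall in fluorescence gain under 50%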;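 further: plate controls were neutral control wells for no effect and wells lacking membranes for full effect; tested at 10 µM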
CSC inhib: cancer stem cell viability inhibitors, primary screen, luminescence; inhibition, % at 7.5 µM; 300,000 tested, 1.1% active; AID 2717, 2010; cancer stem cell-like cells viability;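 active means mean at 75% or more and at least half the replicates too; inconclusive means mean and replicates disagree; tested in HMLE shEcad cells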;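 further: 0% = median of negative and 100% = median of positive control wells; the first replicate is given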
PABP FP inh: PABP poly(A) RNA binding inhibitors, primary screen, biochemical, fluorescence polarization, uHTS; Polyadenylate-binding protein 1 (Homo sapiens), P11940; inhibition, % at 35 µM; 290,000 tested, 1% active; AID 2014, 2009;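 active means 50% or more with normal probe brightness, or confirmed in later tests; inconclusive means above 50% with abnormal brightness, or retests that disagree; inactive means below 50% or failed in later tests; about a fifth of its hits are not listed in these tables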;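 further: calls also rest on retests at 20 µM and on dose response follow-up; controls were probe without protein and protein plus probe with vehicle; some compounds called inactive have numbers as strong as hits; many hits fall short of the cut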
Target sequence (P11940 whole entry, looked up): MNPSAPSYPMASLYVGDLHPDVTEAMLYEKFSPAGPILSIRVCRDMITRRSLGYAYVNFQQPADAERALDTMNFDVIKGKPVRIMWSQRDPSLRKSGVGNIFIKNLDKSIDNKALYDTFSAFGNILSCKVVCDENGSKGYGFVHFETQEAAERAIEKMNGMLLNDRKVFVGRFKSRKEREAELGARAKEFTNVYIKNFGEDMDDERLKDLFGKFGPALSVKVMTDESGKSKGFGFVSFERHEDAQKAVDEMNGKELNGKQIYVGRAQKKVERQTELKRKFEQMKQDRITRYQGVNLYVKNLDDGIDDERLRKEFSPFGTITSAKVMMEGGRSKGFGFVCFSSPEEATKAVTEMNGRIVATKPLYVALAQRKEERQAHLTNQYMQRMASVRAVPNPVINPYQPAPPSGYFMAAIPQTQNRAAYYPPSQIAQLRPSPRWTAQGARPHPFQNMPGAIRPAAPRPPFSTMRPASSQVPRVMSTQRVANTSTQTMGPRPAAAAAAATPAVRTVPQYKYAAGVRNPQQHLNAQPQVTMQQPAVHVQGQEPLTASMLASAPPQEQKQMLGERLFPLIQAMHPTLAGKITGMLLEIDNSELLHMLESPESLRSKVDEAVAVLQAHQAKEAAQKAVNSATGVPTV
HIV Env fusion: inhibitors of HIV-1 Env-driven cell-cell fusion, primary screen, HeLa-JRFL effector, CEM21 target cells, luciferase | inhibition, % at 12.3 µM | 360,000 tested, 1.1% active;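 active means mean replicate inhibition score of at least 50 and every replicate individually at or above 50; inconclusive means only one of the two criteria met; inactive means mean below 50 and not all replicates reaching 50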;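 further: 0% = plate neutral controls and 100% = maraviroc near 300 nM; one replicate is shown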
eIF4H FP inh retest: recorded beside eIF4H FP inh, whose call it bears; inhibition, %; compound at 20 µM; confirmation average;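 mean of two retest wells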
PABP FP inh retest: also measured in PABP FP inh; calls as there; inhibition, %; compound at 20 µM; confirmation repeats;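 mean of two retest wells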
MT1-MMP act inh RFP: second read-out of MT1-MMP act inh, no call of its own (marks repeat the call); RFP signal change, %; measured here: RFP expression control read;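 0 = vehicle wells; hits needed this value within 50% of zero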
Numbers without * were called inactive; i = inactive; ? = inconclusive; . = not tested or not shown.

SMILES	MT1-MMP act inh	MT1-MMP act inh RFP	Yeast UUG start	eIF4H FP inh	Rce1 inh	CSC inhib	PABP FP inh	HIV Env fusion	others
COc1cccc2cc(C(=O)N3CCN(c4ncccn4)CC3)c(=O)oc12	1	-1	6	5	i	0	4	-21
COc1cccc(CNC(=O)C(=O)NCCC2CCCCN2S(=O)(=O)c2ccccc2)c1 (stereo not drawn)	0	-4	-1	.	i	-10	.	5
CCc1ccc(NC(=S)NCC2CCCN2CC)cc1 (stereo not drawn)	-1	1	.	-9	i	-13	0	14
CCCCNc1nc(=S)[nH]c2cc(OC)c(OC)cc12	3	1	-18	2	i	-6	19	-72
COc1ccc(NC(=O)c2ccc(CN3CCN(c4ccccc4)CC3)cc2)cc1	1	-12	4	3	i	-3	8	.
CCOC(=O)N1CCN(CCC(=O)Nc2cc(C)ccc2OC)CC1	-2	-1	.	-3	i	-6	5	-2
COc1cc(C2CC(c3c(C)cc(C)[nH]c3=O)=NN2c2ccccc2F)cc(OC)c1OC (stereo not drawn)	-3	-7	5	14	i	0	-9	-11
Cc1cc(=O)[nH]c2cc(Cl)ccc12	2	0	-17	-8	i	.	13	16
COc1ccc(/C=C(\NC(=O)c2ccco2)C(=O)N2CCCCC2)cc1	2	2	-8	-10	i	-2	-1	-5
CCOC(=O)CSc1nc2ccc(N3CCOCC3)cc2c(=O)n1Cc1ccc2c(c1)OCO2	.	.	.	38	i	12	30	.
C/C(=N/NC(=O)CNC(=O)c1ccccc1)c1ccc(C)cc1	2	5	.	-8	i	-7	-14	-1
COc1cc(OC)cc(C(=O)Nc2ccc3c(c2)OCCO3)c1	2	6	3	-9	i	24	-4	-18
COC(=O)C1C(=O)C=C(Nc2ccc(F)cc2)CC1c1ccc(OC)cc1 (stereo not drawn)	0	1	-14	-6	i	.	1	-18
Cc1occc1C(=O)NCCCCc1ccccc1	-5	0	-15	-5	i	-6	0	-24
c1ccc(-c2ccccc2OCCCCN2CCCCCC2)cc1	-4	-1	4	-5	i	46	7	-2
O=C(CCc1ccc(S(=O)(=O)N2CCOCC2)cc1)OCc1nc2ccccc2s1	3	6	7	-5	i	-4	-6	-36
O=C(COC(=O)c1ccc(Cl)s1)c1cc2ccccc2o1	-4	5	-16	-5	i	-12	52	-32	eIF4H FP inh retest=4;PABP FP inh retest=3
CCCn1nnc(NC(=O)c2ccc(Cl)cc2Cl)n1	-1	2	-16	2	i	-3	-4	-84
O=C(Cn1cc([N+](=O)[O-])cn1)NC1CCCCCC1	0	0	-23	2	i	.	8	9
Cc1ccc(NC(=O)C2CCN(c3ncnc4sc(C)c(C)c34)CC2)cc1S(=O)(=O)N(C)C	-10	-24	-12	.	i	2	.	?
COc1ccc(CCNS(=O)(=O)c2cc3c4c(c2)CCN4C(=O)CC3)cc1	4	0	.	.	i	0	.	-13
CCCc1c(O)nc(SC2CC(=O)N(c3cc(OC)ccc3OC)C2=O)[nH]c1=O (stereo not drawn)	1	-2	-16	6	i	-1	-3	25
O=C1N/C(=C/c2ccc(N3CCOCC3)o2)C(=O)N1c1cccc(Cl)c1	-13	4	.	17	i	67	-2	-478
CCOC(=O)C1CCCN(CCC(=O)Nc2ccc(F)c(F)c2)C1 (stereo not drawn)	3	6	-1	0	i	-5	8	.
COc1ccc(NC(=O)COc2nc3ccccc3nc2N2CCOCC2)c(OC)c1	-4	2	.	1	i	-6	13	2
CCOC(=O)Cn1c(=O)oc2cc(S(=O)(=O)N(C)c3cccc(C)c3)ccc21	-1	1	.	-3	i	-1	9	3
O=C(NC1Cc2ccccc2C1)c1cc(COc2ccc(F)cc2Cl)on1	0	0	.	-6	i	10	1	-2
O=C(NCc1ccccc1)C1CNCC(C(=O)NCc2ccccc2)C1 (stereo not drawn)	3	1	3	.	.	.	.	2
O=C(NCc1ccc(F)cc1F)Nc1cnccc1C(F)(F)F	-5	-4	.	5	i	-10	-2	8
CCN1C(=O)c2cccc3c(S(=O)(=O)NCc4ccccc4)ccc1c23	8	4	-19	.	.	.	.	-9
CCOC(=O)c1cn(CC(=O)Nc2cccc(Cl)c2)nn1	3	2	.	-3	i	.	66	5	eIF4H FP inh retest=-2;PABP FP inh retest=2
CC(NC(=O)CC1SC(N)=NC1=O)c1ccccc1 (stereo not drawn)	2	4	-17	-1	.	3	-4	-4
Cc1ccc(CN(Cc2cccnc2)C(=O)CN2C(=O)COc3ccccc32)o1	-1	3	-23	-3	i	-14	3	.
Cc1nn(-c2ccccc2)c(C)c1CN	0	2	.	-4	i	-4	-3	-6
COc1ccc(CCC(=O)N2CCN(S(=O)(=O)c3ccc4ccccc4c3)CC2)cc1	-1	-4	.	3	i	-2	4	.
COc1ccc(S(=O)(=O)Nc2ccc(-c3ccc(N4CCCC4)nn3)cc2)cc1C	6	3	-20	.	i	-8	.	-37
Cc1ccc(CNC(=O)CCCC(=O)Nc2cc(C)on2)cc1	-1	1	.	2	i	-3	0	5
Nc1c(Cl)cnc(C(Cl)(Cl)Cl)c1Cl	-2	0	.	-9	i	-7	-12	3
CCN(CC)S(=O)(=O)c1cccc(NC(=O)CCNC(=O)NC23CC4CC(CC(C4)C2)C3)c1	6	-7	-3	.	i	28	.	.
Cn1c(=O)[nH]c(=O)c2[nH]c(NCCCN3CCOCC3)nc21	-2	1	-9	-2	i	.	7	.
CC(NC(=O)C1CCCN1C(=O)c1cccs1)c1ccc(Cl)cc1Cl (stereo not drawn)	-1	4	-12	.	.	.	.	-17
O=S(=O)(Cc1ccccc1)c1cnc2ccccc2n1	-9	-11	-11	1	i	4	13	.
CCc1nc2c(OCc3ccc(C#N)cc3)cccn2c1N(C)C(=O)c1ccc(C)cc1	-9	-2	-14	.	.	.	.	33
CCCc1cc(=O)[nH]c(SCC(=O)NC2CCCc3ccccc32)n1 (stereo not drawn)	5	3	.	-10	i	-14	-6	11
Cc1ccc(Cn2nnnc2CN2CCC(NC(=O)c3ccc(Br)cc3)CC2)cc1	7	-7	-13	-8	i	-5	0	.
O=S(=O)(c1ccc(F)c(F)c1)N1CCC2(CC1)OCCO2	-2	-1	-25	-3	i	-4	11	-226
CC(C)(C)NC(=S)N1CCC2CC1c1c(Cl)cccc12 (stereo not drawn)	0	3	-28	.	.	.	.	-23
COc1cc(CNCCc2ccccc2F)ccc1OCC(=O)N1CCCCC1	6	3	1	-5	i	21	-9	11
COC(=O)Cn1nc(-c2ccccc2)n(-c2ccccc2)c1=S	1	1	-6	1	i	-14	-3	-9
O=C(COC(=O)c1cnccn1)NCc1ccc2c(c1)OCO2	2	-1	.	3	i	.	8	11
O=C(CCCN1C(=O)c2cccc3cccc(c23)C1=O)N1CCN(c2ccc(F)cc2)CC1	-1	-9	.	-9	i	-7	3	22
COn1c(=O)c(-c2ccc(F)cc2)[n+]([O-])c2ccccc21	-6	-3	-26	-13	i	-21	-2	-23
CCOc1ccc(N(C(C)C(=O)NC2CCCCCC2)S(C)(=O)=O)cc1 (stereo not drawn)	1	2	-9	-9	i	1	-4	.
CCOC(=O)C1CCN(CCCSc2ccc(Cl)cc2)CC1	0	4	-23	-6	i	-12	12	-3
COc1ccc(NC(=O)c2cc(OC)c(OC)c(OC)c2Br)cc1OC	1	2	2	1	i	5	6	-22
CC1CCCN(C(=O)CSc2nnc3n(C4CCCC4)c(=O)c4ccccc4n23)C1 (stereo not drawn)	-1	-5	-10	1	i	.	-1	23
Cc1ccc2oc(C(=O)N(CCO)Cc3ccccc3)c(C)c2c1	3	-3	1	15	i	-9	0	10
O=C(CC1CCCC1)Nc1ccc2c(c1)CCC2	-2	-4	-1	-1	i	-9	-3	.
COc1ccc(C(=O)NC2CCN(Cc3c(F)cccc3Cl)CC2)cc1OC	1	-4	-6	-2	i	-7	2	6
O=C(CNC(=O)c1ccccc1)N/N=C/c1cc(Br)ccc1O	11	-2	-11	-8	i	21	1	.

Of the compounds above, these contain two or more sulfur atoms:
SMILES	MT1-MMP act inh	MT1-MMP act inh RFP	Yeast UUG start	eIF4H FP inh	Rce1 inh	CSC inhib	PABP FP inh	HIV Env fusion	others
O=C(CCc1ccc(S(=O)(=O)N2CCOCC2)cc1)OCc1nc2ccccc2s1	3	6	7	-5	i	-4	-6	-36
Cc1ccc(NC(=O)C2CCN(c3ncnc4sc(C)c(C)c34)CC2)cc1S(=O)(=O)N(C)C	-10	-24	-12	.	i	2	.	?

(continued)
SMILES	MT1-MMP act inh	MT1-MMP act inh RFP	Yeast UUG start	eIF4H FP inh	Rce1 inh	CSC inhib	PABP FP inh	HIV Env fusion	others
Nc1[nH][nH]c(=O)c1N=Nc1ccc2c(c1)OCO2	5	-1	.	-4	.	8	1	-89
Cc1c(C(=O)N2CCCCC2)c(S(=O)(=O)NCc2ccc(F)cc2)c(C)n1C	1	3	-5	-7	i	-11	-3	9
COCCCNC(=O)CCn1c(=O)c2ccccc2n(CC(=O)NCCC2=CCCCC2)c1=O	-5	-2	7	-3	i	-7	4	-21
CCCCCCCN1C(Nc2ccccc2)=NC[C@@H]1Cc1ccccc1	5	0	-14	-18	i	30	4	1
CCOC(=O)N1CCc2c(sc3c2c(=O)n(Cc2ccccc2)c(=O)n3Cc2ccccc2F)C1	-11	-10	-11	-4	i	6	2	-24
N=C(c1ccc([N+](=O)[O-])cc1)N1CCCCCC1	-5	1	.	-6	i	-13	-5	6
CCC(C(=O)Nc1sc(C(N)=O)c(C)c1C(=O)OC)c1ccccc1 (stereo not drawn)	-5	-4	3	-1	i	62	-6	13
O=C(CCN1CCN(C/C=C/c2ccccc2)CC1)Nc1ccc(Cl)cc1	2	2	.	-4	i	21	-6	16
Cc1nnc(SCC(=O)Nc2ccc3c(c2)OCCO3)n1CC1CCCO1 (stereo not drawn)	4	6	-22	-8	i	.	2	-22
CCOc1ccc(CCNC(=O)COC(=O)c2nc(Cl)ccc2Cl)cc1OCC	-3	3	-9	.	i	-14	.	5
Cn1c(=O)c2c(ncn2CC(=O)NC[C@H]2O[C@@H](n3cnc4c(N)ncnc43)[C@H](O)[C@@H]2O)n(C)c1=O	2	3	5	.	.	.	.	-18
CC1CN(S(=O)(=O)c2cccs2)CC(C)O1 (stereo not drawn)	3	-6	-13	-5	.	17	2	.
COc1ccc(NC(=O)Cc2csc(NC(=O)Nc3ccccc3OC)n2)c(OC)c1	1	-1	-18	.	i	-14	.	-6
CC(C)CNC(=O)COC(=O)CNC(=O)c1cc(Cl)cc([N+](=O)[O-])c1	1	2	-10	-4	i	-4	-12	.
COc1ccc(CCn2c(-c3ccco3)nc3ccccc3c2=O)cc1OC	4	-8	0	-6	i	0	-2	.
COc1ccc(NC(C)=O)cc1S(=O)(=O)Nc1ccc(S(=O)(=O)N2CCCCC2)cc1	2	2	-9	.	.	-11	.	-3
O=c1c2ccccc2[nH]c(=S)n1CCCN1CCN(c2ccccc2F)CC1	8	4	-12	-11	i	25	-6	1
O=S1(=O)CC(N2CCC(c3ccccc3)CC2)CN1Cc1ccc(F)cc1 (stereo not drawn)	6	0	7	.	.	.	.	23
